Compound activity as filed in PubChem BioAssay.
D2 potentiator – Beta-Arrestin HTS for Positive Allosteric Modulators of the Human D2 Dopamine Receptor: Potentiators; AID 624464, 2012; potentiation, % (concentration not given with the values); DiscoveRx D2 beta-arrestin cells, luminescence, 90 min; 100% = 57 uM dopamine signal; D(2) dopamine receptor (Homo sapiens), P14416; 360,000 tested, 0.23% active; active = potentiation of 50% or more; inconclusive = 30% to 50%; inactive = 30% or less;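 further: compound concentration not given in the record; tested on top of an EC20 dose of dopamine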
Target sequence (P14416 whole entry, looked up): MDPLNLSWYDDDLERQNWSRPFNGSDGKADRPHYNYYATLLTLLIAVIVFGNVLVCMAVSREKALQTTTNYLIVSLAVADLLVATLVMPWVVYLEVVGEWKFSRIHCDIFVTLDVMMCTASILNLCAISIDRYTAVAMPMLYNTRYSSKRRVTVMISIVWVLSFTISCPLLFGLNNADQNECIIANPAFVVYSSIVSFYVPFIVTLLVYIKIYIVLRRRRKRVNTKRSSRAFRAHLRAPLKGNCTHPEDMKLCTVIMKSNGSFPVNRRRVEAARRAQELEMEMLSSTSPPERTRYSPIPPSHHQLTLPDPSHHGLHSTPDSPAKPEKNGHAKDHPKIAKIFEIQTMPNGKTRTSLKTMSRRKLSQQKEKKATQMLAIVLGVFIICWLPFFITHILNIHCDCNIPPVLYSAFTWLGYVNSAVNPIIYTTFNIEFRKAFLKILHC
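D2 cells co-treated with compound plus 50 nM dopamine (EC20) for 90 min at 37 deg C to detect potentiation. Beta-arrestin recruitment was read as enzyme-fragment luminescence after 1 h at ambient temperature. Full response was set by 57 uM dopamine.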
TRPML1 inh – qHTS for Inhibitors of the Human Mucolipin Transient Receptor Potential 1 (TRPML1); Mucolipin-1 (Homo sapiens), Q9GZU1; TRPML1-inducible cells, Ca2+ dye fluorescence, FDSS; hits give low values; inhibition of EC80 agonist-evoked calcium signal; activity change, negative = inhibition, % (concentration not given with the values); 390,000 tested, 0.02% active; AID 624415, 2012; in the data active means activity change below about -50%; inconclusive means about -30% to -50%; inactive means above about -30%;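 further: stimulus is agonist 54-4 at its EC80 concentration; on the % scale 0 is the no-effect control and ±100 the full control effect; compound concentration not given in the record; the text of the record puts the active cut at -80%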
Target sequence (Q9GZU1 whole entry, looked up): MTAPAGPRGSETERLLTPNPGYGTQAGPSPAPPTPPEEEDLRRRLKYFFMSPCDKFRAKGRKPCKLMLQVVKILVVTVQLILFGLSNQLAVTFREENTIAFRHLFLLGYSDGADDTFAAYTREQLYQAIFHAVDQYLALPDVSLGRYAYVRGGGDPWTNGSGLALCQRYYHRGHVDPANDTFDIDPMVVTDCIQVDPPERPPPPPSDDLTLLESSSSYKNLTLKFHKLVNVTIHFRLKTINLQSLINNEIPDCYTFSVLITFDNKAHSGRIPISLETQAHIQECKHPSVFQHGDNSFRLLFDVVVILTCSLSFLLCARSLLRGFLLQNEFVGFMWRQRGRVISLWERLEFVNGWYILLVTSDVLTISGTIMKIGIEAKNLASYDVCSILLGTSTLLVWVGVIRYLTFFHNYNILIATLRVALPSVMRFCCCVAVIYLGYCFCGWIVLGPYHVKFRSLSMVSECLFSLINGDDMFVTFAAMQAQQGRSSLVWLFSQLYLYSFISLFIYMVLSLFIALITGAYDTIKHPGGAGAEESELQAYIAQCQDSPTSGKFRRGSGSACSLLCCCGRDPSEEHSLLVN
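Tet-induced TRPML1-DL cells loaded with Ca8 no-wash calcium dye were read kinetically on FDSS. Compound addition was followed by EC80 agonist 54-4 (4 uM final); inhibition was read over 110 s.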
Six1-Eya2 inh – qHTS Assay for Inhibitors of the Six1/Eya2 Interaction; 360,000 tested, 0.56% active; activity change, % (concentration not given with the values); AlphaScreen GST-Six1/His-Eya2 binding, biochemical; hits give low values; control for the full effect not named in the record; in the data active = activity change below about -65%; inconclusive = about -30% to -65%; inactive = above about -30%; further: on the % scale 0 is the no-effect control and ±100 the full control effect
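Compounds are tested against tagged Six1 and Eya2 proteins bridged by glutathione donor and nickel acceptor beads; after a one-hour incubation at 37 °C without light, AlphaScreen emission is recorded.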
TRPML1 ag – qHTS for Agonists of the Human Mucolipin Transient Receptor Potential 1 (TRPML1); activation, % (no concentration beside the values); AID 624414, 2012; TRPML1-expressing cells, Ca2+ dye fluorescence, FDSS; host cell line not named in the record; reference of the full effect not given here; 410,000 tested, 0.12% active; in the data active = activation above about 50%; inconclusive = about 30% to 50%; inactive = below about 30%; further: 0% is about no effect; the text of the record puts the active cut at 80%
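In this qHTS format, compounds were pin-transferred onto Ca8-dye-loaded TRPML1-DL cells induced with Tet overnight, and intracellular Ca2+ fluorescence was recorded kinetically for 110 s after a 10 s baseline. A subsequent 4uM final 54-4 (EC80) addition followed by a second 110 s read served as the antagonist phase.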
CtBP-E1A inh – qHTS Assay for Inhibitors of the CtBP/E1A Interaction; AlphaScreen GST-E1A/His-CtBP binding, 1536-well; hits give low values; control for the full effect not named in the record; AID 651724, 2012; 340,000 tested, 0.49% active; CtBP / adenovirus E1A interaction (AlphaScreen); activity change, % (concentration not given with the values); in the data active means activity change below about -65%; inconclusive means about -30% to -65%; inactive means above about -30%; further: on the % scale 0 is the no-effect control and ±100 the full control effect
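AlphaScreen with 125 nM GST-E1A and 125 nM His-CtBP (5X stocks) in Tris pH 8.0, 300 mM NaCl, BSA, Tween 20, TCEP. Compounds preincubated 2 h at 37 deg C, then glutathione donor/nickel acceptor beads added for 1 h at 37 deg C in dark.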
TRPV1 potentiator – HTS Assay for Compounds that Act as Potentiators of the Vanilloid Receptor 1; AID 540277, 2011; Transient receptor potential cation channel subfamily V member 1 (Homo sapiens), Q8NER1; 320,000 tested, 0.02% active; TRPV1-expressing cells, Fluo-8 calcium influx, capsaicin EC20 potentiation; host cell line not named in the record; control for the full effect not named in the record; potentiation, % at 8.33 µM; active means potentiation above 80%; inconclusive means 30% to 80%; inactive means below 30%; further: 0% is about no effect
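Cells expressing TRPV1 were dye-loaded with Fluo-8 and read kinetically: 10 s baseline, 3 min after compound (agonist portion), then 2 min after EC20 capsaicin (allosteric enhancer portion). Calcium-bound dye fluorescence at 480/520 nm.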
* = called active by the depositor; u = inconclusive; x = no result given. This is a random part of the collection; overall some 0.95% were active at least once.

The opening 6 compounds as a preview:
SMILES	D2 potentiator	TRPML1 inh	Six1-Eya2 inh	TRPML1 ag	CtBP-E1A inh	TRPV1 potentiator
O=S1(=O)CCN(OCc2ccc(F)cc2Cl)CC1	0	1	1	0.1	0	-5
Cc1ccc(C(=O)N2CCN(S(=O)(=O)c3cc(Br)ccc3Br)CC2)o1	-3	0	-17	-0.4	-13	-8
CCCCOC(=O)CCc1n[nH]c(=O)[nH]c1=O	1	-15	6	-0.7	6	6
O=C(COC(=O)c1nc(Cl)ccc1Cl)Nc1ccc(Cl)cn1	-2	9	2	0.0	11	9
Cc1ccc(CC(CC(=O)NCCc2ccc3c(c2)OCO3)C(=O)O)cc1 (stereo not drawn)	-3	3	-2	-0.2	7	-1
O=S(=O)(Nc1ccc(S(=O)(=O)N2CCCC2)cc1)c1ccc(F)cc1	2	50	5	-1.8	11	-8

All compounds of this part, from the first entry:
SMILES	D2 potentiator	TRPML1 inh	Six1-Eya2 inh	TRPML1 ag	CtBP-E1A inh	TRPV1 potentiator
O=S1(=O)CCN(OCc2ccc(F)cc2Cl)CC1	0	1	1	0.1	0	-5
Cc1ccc(C(=O)N2CCN(S(=O)(=O)c3cc(Br)ccc3Br)CC2)o1	-3	0	-17	-0.4	-13	-8
CCCCOC(=O)CCc1n[nH]c(=O)[nH]c1=O	1	-15	6	-0.7	6	6
O=C(COC(=O)c1nc(Cl)ccc1Cl)Nc1ccc(Cl)cn1	-2	9	2	0.0	11	9
Cc1ccc(CC(CC(=O)NCCc2ccc3c(c2)OCO3)C(=O)O)cc1 (stereo not drawn)	-3	3	-2	-0.2	7	-1
O=S(=O)(Nc1ccc(S(=O)(=O)N2CCCC2)cc1)c1ccc(F)cc1	2	50	5	-1.8	11	-8
CC(C)OCCCN(CC(O)c1ccccc1)CC(O)c1ccccc1 (stereo not drawn)	-13	31	9	0.6	9	-21
COc1cc(C)ccc1OCC(=O)Nc1ccccc1N1CCOCC1	0	-2	2	0.0	1	-28
Cc1ccccc1-c1ccc(/C=C2/SC(N3CCOCC3)=NC2=O)o1	u	-3	-7	0.7	-24	-2
CC(C)CCC(O)(CCC(C)C)C(=O)NNc1ccccc1	-2	13	9	2.7	7	-5
C=C1CCN([C@@H](Cc2ccccc2)C(=O)Nc2ccc(OC)cc2)S(=O)(=O)c2ccccc21	-12	16	-11	0.7	-5	x
CCN1CCN(C(=O)Nc2ccc(Cc3ccc(NC(=O)N4CCN(CC)CC4)cc3)cc2)CC1	-19	-15	-3	0.6	-14	6
COc1ccc(C(=O)N/C(=C\c2cn(C)c3ccccc23)C(=O)N2CCOCC2)cc1	-11	-4	14	-0.8	24	25
COCCN1C(=O)CC(NNC(=O)c2ccc(S(=O)(=O)N3CCCC3)cc2)C1=O (stereo not drawn)	-4	u	3	-0.1	0	1
O=C(CNC(=O)c1sc2ccccc2c1Cl)NC1CC1	-21	18	-3	1.2	-5	9
CCOc1ccc(CC(=O)NCc2ccc3c(c2)cc(C)n3C)cc1	1	7	-5	0.8	-4	-20
COc1ccccc1NC(=O)COC(=O)C1C2CC3OC(=O)C1C3C2 (stereo not drawn)	1	-3	-20	-0.3	-13	-6
Cn1c(=O)n(CC(=O)Nc2cccnc2)c2ccccc21	-10	4	-1	1.8	2	x
COc1ccc(/C=N/NC(=O)c2ccc(N(C)S(=O)(=O)c3ccccc3)cc2)cc1	-10	-2	-14	1.5	x	-5
CC(=O)NC(Cc1ccccc1)C(=O)OCC(=O)c1ccccc1 (stereo not drawn)	-13	27	8	0.0	-2	8
O=c1c2sccc2n(Cc2cccc(F)c2)c(=O)n1-c1ccc(F)cc1	0	-13	1	1.7	7	-2
COc1ccc(C(N)c2csc(NC(=O)Nc3cccc(C(F)(F)F)c3)n2)cc1 (stereo not drawn)	-1	x	-8	1.8	-7	x
Cc1ccc(-c2ccc([C@H]3[C@H]4C=CC[C@@H](C)[C@@H]4C(=O)N3Cc3ccccc3)c(F)c2)cc1	-9	85	-4	1.8	0	u
O=C(N=C1SC2CS(=O)(=O)CC2N1c1ccc(Cl)cc1Cl)C1CCCO1 (stereo not drawn)	-8	-9	5	0.9	-1	-17
COc1ccccc1/C=C/C=N/n1c(-c2ccc(Cl)cc2)n[nH]c1=S	-6	7	-17	0.4	-4	x
Cc1ccc2nc(SCc3nnc(-c4ccccc4[N+](=O)[O-])o3)c(C#N)cc2c1	6	-4	-2	-0.4	3	5
Cc1cc2cc(CCNC(=O)c3cccc([N+](=O)[O-])c3)c(=O)[nH]c2cc1C	-8	11	2	0.7	-3	16
O=C1NN(c2cccc(Br)c2)C(=O)/C1=C/c1ccc(-c2cc([N+](=O)[O-])ccc2O)o1	-7	4	-7	-0.4	x	-2
COCC(C)N1CCC(n2nccc2NC(=O)c2ccccc2Cl)CC1 (stereo not drawn)	-16	2	8	-0.1	5	x
CC(C)Oc1ccc(/C(O)=C2/C(=O)C(=O)N(CCN3CCOCC3)C2c2ccccc2)cc1 (stereo not drawn)	5	0	10	-1.1	6	-3
C=CCC[C@H](Cc1ccc(F)cc1)C(=O)OC[C@H](Cc1c[nH]c2ccccc12)NC(=O)[C@@H](CC=C)CC(=O)NCCO	6	18	-10	7.3	-2	x
CCn1c(N2CCN(C(=S)Nc3ccc(OC)cc3)CC2)nc2ccccc21	-17	0	-4	0.7	x	0
COc1ccc(C)cc1/C=C/C(=O)N1CCN(S(=O)(=O)c2cccs2)CC1	-7	-1	-8	-0.1	-2	x
CC(=O)Nc1cccc(-n2nnc(SCC(=O)Nc3ccccc3)n2)c1	-3	-6	6	1.2	x	8
CC(=O)Nc1ccc(S(=O)(=O)Nc2nc3n(n2)C(c2ccccc2)CC(=O)N3)cc1 (stereo not drawn)	-18	17	-4	-0.1	0	-15
Cc1c(C(=O)Nc2ccc(S(=O)(=O)Nc3ncccn3)cc2)oc2ccc(F)cc12	4	-7	8	-0.2	-6	11
CCOc1c(CNCCCSc2nc(C)cc(C)n2)cccc1OC	-24	17	-1	-0.3	9	-2
O=C(N/N=C(\c1ccccc1)c1cccnc1)c1ccc(O)cc1	4	-5	-7	0.8	-23	3
NS(=O)(=O)c1ccc(NC(=O)COC(=O)CC2Sc3ccccc3NC2=O)cc1 (stereo not drawn)	-5	-1	0	0.0	-9	6
Cc1ccc(S(=O)(=O)N2CCC(C(=O)NCCCN3CCCC3=O)CC2)cc1C	10	1	-2	-0.4	-6	-2

Some of these compounds in order of the D2 potentiator value, lowest first.
Compound	D2 potentiator
CC(=O)Nc1ccc(S(=O)(=O)Nc2nc3n(n2)C(c2ccccc2)CC(=O)N3)cc1 (stereo not drawn)	-18
Cc1ccc(-c2ccc([C@H]3[C@H]4C=CC[C@@H](C)[C@@H]4C(=O)N3Cc3ccccc3)c(F)c2)cc1	-9
O=C(N=C1SC2CS(=O)(=O)CC2N1c1ccc(Cl)cc1Cl)C1CCCO1 (stereo not drawn)	-8
Cc1c(C(=O)Nc2ccc(S(=O)(=O)Nc3ncccn3)cc2)oc2ccc(F)cc12	4

Next section:
SMILES	D2 potentiator	TRPML1 inh	Six1-Eya2 inh	TRPML1 ag	CtBP-E1A inh	TRPV1 potentiator
O=C(COC(=O)C1CCN(S(=O)(=O)c2ccccc2C(F)(F)F)CC1)NCc1ccc(F)cc1	-8	8	2	0.1	9	-10
COc1ccc(CCN(C)C2CCCN(C(=O)Cn3cnnn3)C2)cc1OC (stereo not drawn)	-20	-3	-10	0.5	21	3
CC1CCN(c2ccc([N+](=O)[O-])c(SCCO)c2)CC1	-7	-5	-7	-0.1	-7	28
O=C(Nc1ccc(F)cc1)C1CCCO1 (stereo not drawn)	-6	-9	-8	-0.6	6	-1
Cc1ccc(S(=O)(=O)NC(=O)COc2ccccc2C(N)=O)cc1	-12	-8	3	0.8	1	-3
CCOC(=O)CSc1ncccn1	-1	31	0	0.2	-2	8
CCCn1c2ccc(C)cc2c2nnc(SCCN3CCOCC3)nc21	-11	4	-12	0.0	0	-14
CCCc1c(C)c2cc(C)ccc2[nH]c1=O	11	8	4	-1.3	-3	-5
O=C(CNC(=O)Cc1cccc2ccccc12)NCc1ccc(F)cc1	-9	0	-27	-1.5	0	-3
NCC(=O)N1CCC(C(=O)N[C@@H](Cc2c[nH]c3ccccc23)C(=O)O)CC1	-7	x	-16	x	2	-5
O=C(COC(=O)/C=C/c1cccc(Cl)c1)NC1CCCC1	-2	-19	-1	1.9	-8	-12
Cc1ccn2c(=O)c(NC(=O)COc3ccccc3)c(C)nc2c1	16	24	4	-0.1	-21	0
CCCCNc1cc(=O)n(C)c(=O)n1C	-3	-1	5	1.2	3	1
COC(=O)c1ccc(/C=C2/SC(=S)N(CCC(=O)N3CCOCC3)C2=O)cc1	1	13	7	0.3	0	5
CC(=O)NC1=C(C#N)C(c2ccccc2)c2c(ccc3ccccc23)O1 (stereo not drawn)	7	14	-7	3.4	-10	-12
Cc1nn(-c2ccccc2)c(C)c1NC(=O)COC(=O)[C@@H](NC(=O)c1ccccc1)C(C)C	6	-14	2	-0.2	-8	7
Cc1ccc(O)c(NC(=O)c2cc(-c3ccccc3Cl)on2)c1	24	0	6	1.1	4	-2
Cc1ccc(C(=O)NC(=S)NCC2CCCO2)cc1 (stereo not drawn)	-17	20	-6	0.4	-6	-13
CCOC(=O)c1c(C)n(CC(O)CN(C)C)c2cc(Br)c(OC)cc12 (stereo not drawn)	-7	-4	-2	-0.4	-8	-3
CCOc1ccc(N(CC(=O)NCCc2ccccc2)C(=O)CCC(=O)Nc2nccs2)cc1	-33	-1	1	1.9	-2	6
COc1ccc(-c2cnnc(N/N=C/c3ccc(O)c(O)c3)n2)cc1	u	-22	-21	-0.7	-15	-1

Ordered by SMILES length (high to low): some entries from above
SMILES	D2 potentiator	TRPML1 inh	Six1-Eya2 inh	TRPML1 ag	CtBP-E1A inh	TRPV1 potentiator
CCOc1ccc(N(CC(=O)NCCc2ccccc2)C(=O)CCC(=O)Nc2nccs2)cc1	-33	-1	1	1.9	-2	6
COc1ccc(-c2cnnc(N/N=C/c3ccc(O)c(O)c3)n2)cc1	u	-22	-21	-0.7	-15	-1
CCCCNc1cc(=O)n(C)c(=O)n1C	-3	-1	5	1.2	3	1
